Screening data as filed in PubChem BioAssay.
Rango complex inh: Rango-importin beta binding inhibition; Q14974; Rango CFP/YFP FRET sensor + importin beta, 45 min; Potency, µM (doses to about 92.2 µM), for the others: at the top dose inhibition of complex formation; hit rate 0.031% among 340,000; AID 540263; active = rising FRET ratio curve, often small or poorly fitted; inconclusive = mostly compound fluorescence or quenching in the first reads; inactive = flat curves in all reads;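 also: potency is read from the fitted curve at half-maximal effect; 0% = DMSO wells and 100% = buffer wells lacking importin beta; nearly all actives have a fitted effect of over 15% in size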
Target sequence (Q14974 whole entry, looked up): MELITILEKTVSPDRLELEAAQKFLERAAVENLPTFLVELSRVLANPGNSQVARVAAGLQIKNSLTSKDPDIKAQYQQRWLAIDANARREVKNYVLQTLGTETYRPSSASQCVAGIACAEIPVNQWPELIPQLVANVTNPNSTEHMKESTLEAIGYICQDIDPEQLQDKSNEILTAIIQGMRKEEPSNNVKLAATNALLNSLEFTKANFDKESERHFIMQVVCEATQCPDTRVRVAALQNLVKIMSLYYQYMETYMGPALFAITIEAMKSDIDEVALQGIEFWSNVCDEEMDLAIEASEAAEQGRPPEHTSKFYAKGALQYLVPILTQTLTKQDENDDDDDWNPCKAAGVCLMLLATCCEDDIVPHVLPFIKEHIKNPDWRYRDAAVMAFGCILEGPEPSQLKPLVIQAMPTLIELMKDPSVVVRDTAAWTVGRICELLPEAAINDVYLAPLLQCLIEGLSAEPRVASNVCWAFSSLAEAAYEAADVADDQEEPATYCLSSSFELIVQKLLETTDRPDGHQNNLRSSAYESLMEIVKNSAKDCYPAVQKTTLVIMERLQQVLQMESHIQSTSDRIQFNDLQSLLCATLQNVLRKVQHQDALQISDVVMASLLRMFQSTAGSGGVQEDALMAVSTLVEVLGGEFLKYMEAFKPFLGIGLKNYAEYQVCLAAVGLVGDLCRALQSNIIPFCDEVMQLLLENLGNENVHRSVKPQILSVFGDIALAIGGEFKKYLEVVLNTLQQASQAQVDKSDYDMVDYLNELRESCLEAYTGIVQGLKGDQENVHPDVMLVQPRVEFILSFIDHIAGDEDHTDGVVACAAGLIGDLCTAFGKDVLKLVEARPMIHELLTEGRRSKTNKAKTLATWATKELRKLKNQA
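Inhibition scored from the CFP 486 nm/YFP 530 nm FRET ratio 45 min after adding 0.125 microM importin beta to 50 nM Rango biosensor preincubated 5 min with compound (room temperature, PBS with DTT, Tween-20, BSA). No-importin wells as positive control.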
GLA inh pH 4.5: inhibitors of human alpha-galactosidase A at pH 4.5; P06280; 230,000 tested, under 10 active; activity change, negative = inhibition, % at 105 µM; purified enzyme, 4-MU-alpha-Gal fluorescence, pH 4.5; AID 1467; inconclusive = small, poorly fitted or top-dose-only inhibition, or a rising curve; inactive = flat fitted curve, though single readings scatter; no compound was filed as active;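 also: 0% = full activity with enzyme and -100% = basal without enzyme; dose as in the result columns while the protocol names 77 µM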
Rango release inh: prevents RanGTP from dissociating the Rango-importin beta complex. AID 540253. hit rate 0.071% among 340,000. Potency, µM (series often up to 46.1 µM), inactives show top-dose activity change, negative = inhibition. Biochemical FRET Rango-importin beta, RanGTP-induced dissociation. O95149+P62826; active means falling FRET ratio curve, often poorly fitted, with flat reads before Ran was added; inconclusive means other falling curves, or compound fluorescence or quenching; inactive means flat or rising ratio curve;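 also: potency is read from the fitted curve at half-maximal effect; % of control where 0% means no effect; nearly all actives have a fitted effect of over 45% in size; -100% = wells without RanGTP and RCC1; the record marks most hits as doubtful in a second field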
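Rango (0.1 uM)–importin beta (0.25 uM) complex; RanGTP-RCC1 trigger; 45 min RT; CFP/YFP FRET read.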
miR-21 reporter: miR-21 reporter, rising signal. Potency, µM (titrated, usually from 38.3 µM), inactives show at the top dose reporter change, positive = more light. HeLa miR-21 FLuc reporter, luciferase, 48 h. 340,000 tested, under 10 active. AID 2288; active = well fitted rising curve with a large enough effect; inconclusive = small, poorly fitted or top-dose-only effect; inactive = no such curve, though single readings can be large or run the other way;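 also: % of control where 0% means no effect; miR-21 action dims this reporter so a rising signal means less miR-21 action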
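Compounds were titrated across several concentrations (up to approximately 40 uM) and incubated 48 hours with HeLa miR-21-FLuc reporter cells (miR-21 target sequence downstream of FLuc, endogenous miR-21). Readout was firefly luciferase luminescence after lytic detection reagent.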
* hit, by the source's call; u = inconclusive; x = no result given; [ ] = another dose, or the depositor's remark. Only part of the results is shown; count on the stated rates, not on these rows.

SMILES	Rango complex inh	GLA inh pH 4.5	Rango release inh	miR-21 reporter
CC(NC(=S)Nc1ccc(OC(F)F)cc1OC(F)F)C(C)(C)C (stereo unspecified)	3.0%	0	-6%	14%
O=C(NCc1cccs1)C(=O)NCC(c1ccco1)N1CCN(c2ccccc2F)CC1 (stereo unspecified)	-2.0%	-11	-15%	13%
O=C(COC(=O)C1=COCCO1)Nc1ccc(Br)cc1Br	-2.0%	x	-11%	x
COC(=O)c1cc(NC(=O)c2nccnc2C(=O)O)cc(C(=O)OC)c1	0.5%	1	0%	-1%
Nc1nc(-c2cccnc2)nn1S(=O)(=O)c1ccccc1	4.8%	x	1%	x
CC(=O)Nc1cc(C(=O)O)ccc1S(=O)(=O)c1ccc(C)cc1	3.6%	5	0%	-3%
CC(C)(C)[C@@H]1CCC(=O)N(CC[C@H](N=[N+]=[N-])c2ccccc2)CC1	2.6%	x	4%	4%
CCOc1ccc(S(=O)(=O)NCc2ccccc2Cl)cc1C(N)=O	-2.0%	4	-16%	1%
CC[n+]1c(C)n(-c2ccccc2)c2ccc(NC(C)=O)cc21	-1.4%	7	11%	24%
Cc1nnc(C)c2c(C)n(-c3ccccc3)c(C)c12	u	x	-21%	-1%
Cc1c2c(nc3c(C(=O)NC4CCCC4)cnn13)CCCC2	-5.2%	1	0%	-8%
CN1CCC(N(C)CC(=O)Nc2ccccc2N2CCOCC2)CC1	4.2%	0	27%	-3%
CC(C)NC(=O)CC(=O)N/N=C/c1ccc(Br)cc1	3.2%	1	7%	-5%
COc1cc2cc(CCOC(=O)c3ccc(F)cc3)oc(=O)c2cc1OC	-0.9%	x	-21%	x
CC(=C1C(=O)c2ccccc2C1=O)N1CCC(C(N)=O)(N2CCCCC2)CC1	-2.6%	-2	2%	-7%
O=C1CC2(CCCCC2)Oc2ccc(OCC(=O)N3CCOCC3)cc21	-0.6%	22	-2%	-13%
COc1ccc2c(c1)CCc1c(C(=O)NCc3ccc(Cl)cc3)noc1-2	-2.1%	1	4%	-7%
COc1cc(CC(=O)Nc2nc(-c3ccc(F)c(F)c3)cs2)cc(OC)c1OC	2.4%	x	9%	28%
CCCSc1nc(C)c2cc(C)cc(C)c2n1	1.9%	-3	-13%	-2%
O=C(CSc1nc2ccccc2c(=O)n1CCCN1CCOCC1)Nc1ccc2c(c1)OCO2	-1.9%	-6	17%	-7%
CC1CN(S(=O)(=O)c2ccc(NC(=O)CCN3C(=O)c4ccccc4C3=O)cc2)CC(C)O1 (stereo unspecified)	-4.9%	-2	1%	-3%
CCC(=O)Nc1nnc(-c2ccco2)o1	-4.3%	-9	0%	-5%
O=C(COC(=O)CCCN1C(=O)c2cccc3cccc(c23)C1=O)Nc1cccc(C(F)(F)F)c1	0.4%	-4	8%	-8%
COC(=O)c1sc(NC(=O)c2ccc(Cn3cc(Cl)cn3)o2)c(C#N)c1C	u	-1	u	2%
CC(C)Nc1ccccc1	-1.1%	x	12%	x
CCc1cccc2c(C(=O)CSc3nnc(-c4ccncc4)n3C)c[nH]c12	2.5%	9	-15%	-6%
COc1ccc(-c2nc(-c3cccc([N+](=O)[O-])c3O)cc(=O)o2)cc1OC	4.4%	2	12%	-6%
CCOC(=O)C(/C=C(\C#N)C(=O)OCC)=C(/N)N1CCN(c2ccc(OC)cc2)CC1	-1.3%	8	29%	-5%
CN(C)S(=O)(=O)c1ccc(C(=O)Nc2ccc(CN3CCCC3)cc2)cc1	-3.5%	-27	-10%	-9%
C=CCn1c(SCC(=O)Nc2ccccc2C)nc2sc(C)c(C)c2c1=O	-2.2%	-4	15%	-4%
CCOc1ccccc1NC(=O)COC(=O)C1CC1	6.0%	2[21.1 µM]	15%	1%
CN(C)S(=O)(=O)n1cc(/C=C(\NC(=O)c2ccccc2F)C(=O)N2CCCC2)c2ccccc21	-2.4%	x	7%	-2%
Oc1cccc(/C=N/N2CCN(c3ccccn3)CC2)c1	-1.4%	-7	14%	-28%
Cc1c(-n2cc(C(=O)c3cc(Br)ccc3O)cc(C#N)c2=O)c(=O)n(-c2ccccc2)n1C	u	1	u	-7%
CSc1nc2ccccc2c(=O)n1C1CCOC(C)(C)C1 (stereo unspecified)	0.3%	0	2%	-14%
Nc1nc(-c2ccco2)nn1C(=O)CCc1ccccc1	-3.0%	-7	-12%	-4%
CCC(C)n1[nH]c(=O)c2c(C)cc(C)nc21 (stereo unspecified)	-0.1%	2	-9%	-13%
CCOc1ccc(NC(=O)C2CCN(S(C)(=O)=O)CC2)cc1	-2.5%	x	12%	-2%
O=C1C(Cl)=C(N2CCOCC2)C(=O)N1c1cccc(Cl)c1	0.2%	-2	-2%	16%
CN1C(=O)C2(N=c3ccccc3=N2)c2ccccc21	-3.9%	4	-1%	-11%
O=C(CSc1nnnn1-c1ccc2c(c1)OCCO2)Nc1nc2c(s1)CCCC2	5.6%	2	-17%	5%
Cc1cc(C(=O)CN2C(=O)NC3(CCCc4ccccc43)C2=O)c(C)n1Cc1ccccc1 (stereo unspecified)	0.3%	-4	-1%	-7%
COc1ccc(C(=O)C2CCCN(C(=O)c3c4c(nn3C)CCCC4)C2)cc1F (stereo unspecified)	-5.2%	-6	-9%	1%
O=C(NCCSCc1ccco1)Nc1ccc(Cl)cc1	0.0%	6	0%	-37%
CCOC(=O)c1[nH]c(C)c(/C(O)=C2\C(=O)C(=O)N(CCCN3CCOCC3)C2c2cccnc2)c1C (stereo unspecified)	0.7%	6	-4%	0%

Rewritten bar-delimited: part of the list above
Structure | Rango complex inh | GLA inh pH 4.5 | Rango release inh | miR-21 reporter
COc1ccc(C(=O)C2CCCN(C(=O)c3c4c(nn3C)CCCC4)C2)cc1F (stereo unspecified) | -5.2% | -6 | -9% | 1%
O=C(NCCSCc1ccco1)Nc1ccc(Cl)cc1 | 0.0% | 6 | 0% | -37%
CCOC(=O)c1[nH]c(C)c(/C(O)=C2\C(=O)C(=O)N(CCCN3CCOCC3)C2c2cccnc2)c1C (stereo unspecified) | 0.7% | 6 | -4% | 0%

18 entries from above, bar-delimited:
SMILES | Rango complex inh | GLA inh pH 4.5 | Rango release inh | miR-21 reporter
CCOC(=O)C(/C=C(\C#N)C(=O)OCC)=C(/N)N1CCN(c2ccc(OC)cc2)CC1 | -1.3% | 8 | 29% | -5%
CN(C)S(=O)(=O)c1ccc(C(=O)Nc2ccc(CN3CCCC3)cc2)cc1 | -3.5% | -27 | -10% | -9%
C=CCn1c(SCC(=O)Nc2ccccc2C)nc2sc(C)c(C)c2c1=O | -2.2% | -4 | 15% | -4%
CCOc1ccccc1NC(=O)COC(=O)C1CC1 | 6.0% | 2[21.1 µM] | 15% | 1%
CN(C)S(=O)(=O)n1cc(/C=C(\NC(=O)c2ccccc2F)C(=O)N2CCCC2)c2ccccc21 | -2.4% | x | 7% | -2%
Oc1cccc(/C=N/N2CCN(c3ccccn3)CC2)c1 | -1.4% | -7 | 14% | -28%
Cc1c(-n2cc(C(=O)c3cc(Br)ccc3O)cc(C#N)c2=O)c(=O)n(-c2ccccc2)n1C | u | 1 | u | -7%
CSc1nc2ccccc2c(=O)n1C1CCOC(C)(C)C1 (stereo unspecified) | 0.3% | 0 | 2% | -14%
Nc1nc(-c2ccco2)nn1C(=O)CCc1ccccc1 | -3.0% | -7 | -12% | -4%
CCC(C)n1[nH]c(=O)c2c(C)cc(C)nc21 (stereo unspecified) | -0.1% | 2 | -9% | -13%
CCOc1ccc(NC(=O)C2CCN(S(C)(=O)=O)CC2)cc1 | -2.5% | x | 12% | -2%
O=C1C(Cl)=C(N2CCOCC2)C(=O)N1c1cccc(Cl)c1 | 0.2% | -2 | -2% | 16%
CN1C(=O)C2(N=c3ccccc3=N2)c2ccccc21 | -3.9% | 4 | -1% | -11%
O=C(CSc1nnnn1-c1ccc2c(c1)OCCO2)Nc1nc2c(s1)CCCC2 | 5.6% | 2 | -17% | 5%
Cc1cc(C(=O)CN2C(=O)NC3(CCCc4ccccc43)C2=O)c(C)n1Cc1ccccc1 (stereo unspecified) | 0.3% | -4 | -1% | -7%
COc1ccc(C(=O)C2CCCN(C(=O)c3c4c(nn3C)CCCC4)C2)cc1F (stereo unspecified) | -5.2% | -6 | -9% | 1%
O=C(NCCSCc1ccco1)Nc1ccc(Cl)cc1 | 0.0% | 6 | 0% | -37%
CCOC(=O)c1[nH]c(C)c(/C(O)=C2\C(=O)C(=O)N(CCCN3CCOCC3)C2c2cccnc2)c1C (stereo unspecified) | 0.7% | 6 | -4% | 0%

(list continues)
SMILES	Rango complex inh	GLA inh pH 4.5	Rango release inh	miR-21 reporter
COC(=O)C1C2CCCCC1C(=O)O2 (stereo unspecified)	-3.4%	x	-10%	x
O=C(COC(=O)CSCc1ccccc1)NCc1ccccc1	-0.4%	8	-5%	2%
COc1cc2c(cc1OC)CN(CC(=O)Nc1ccc(F)cc1)C(C(=O)O)C2 (stereo unspecified)	u	x	u	-5%
NS(=O)(=O)c1ccc(NC(=O)COC(=O)/C(=C/c2cccs2)c2cccs2)cc1	-1.9%	7	1%	5%
Cc1ccsc1C(=O)Nc1cccc(-n2cnnn2)c1	-4.1%	x	3%	-2%
CCCCCCSc1cccc(-c2nc3cc(C)ccn3c2NC2CCCCC2)c1	-3.2%	x	-10%	x
N#Cc1ccc(OCC(=O)NN2Cc3ccccc3C2=N)cc1	-2.5%	11	-9%	1%
Cc1cc(C)c(CN2CCC(n3nccc3NC(=O)c3ccccc3Cl)CC2)cc1C	4.5%	x	-4%	9%
c1ccc(-c2cn3nc(-c4ccccc4)sc3n2)cc1	-0.6%	x	2%	x
CCOc1ccc(C2CC(c3ccccc3C)n3nc(N)nc3N2)cc1 (stereo unspecified)	-0.1%	4	-13%	-6%
COc1ccccc1N1CCN(C2=NS(=O)(=O)c3ccccc32)CC1	1.7%	7	6%	-10%
C/C(Cl)=C\Cn1c(Nc2cccc(C)c2)nc2c1c(=O)n(C)c(=O)n2C	-0.1%	2	13%	-1%
CN(Cc1ccco1)S(=O)(=O)c1ccc(CN2C(=O)c3cccnc3C2=O)s1	-0.2%	x	-11%	-1%
CCOC(=O)NC(=S)Nc1ccc(C(C)(C)C)cc1Br	-0.5%	-1	11%	-34%
COC(=O)c1ccccc1NC(=O)C1CCCN(S(=O)(=O)c2ccc(F)cc2)C1 (stereo unspecified)	-0.5%	-25	22%	7%
c1ccc(Sc2ncnc3ccccc23)cc1	1.6%	5	1%	2%
O=C1C(=C2SCCCS2)CC/C1=C\c1ccc(F)cc1	2.0%	-6	-5%	-22%
O=c1[nH]c(/C=C\c2ccccc2F)nc(O)c1[N+](=O)[O-]	1.1%	x	2%	-1%
CCC(C)NC(=O)c1ccccc1NC(=O)c1ccc(CSc2ccccc2)cc1 (stereo unspecified)	2.1%	3	-13%	-20%
CC(C)C(c1nnnn1C(C)(C)C)N1CCN(c2cccc(Cl)c2)CC1 (stereo unspecified)	2.8%	-14	17%	9%
COc1cccc(NC2c3ccccc3C(=O)N2Cc2ccco2)c1 (stereo unspecified)	1.4%	-6	0%	-4%
O=C1c2ccccc2C(=O)N1CCCCSc1nc2ccccc2o1	-0.2%	-3	0%	1%
Cc1cccc(N=Nc2c(O)[nH]c3ccc(Br)cc23)c1	u	x	5%	-40%
CCCCNS(=O)(=O)c1ccc(NC(=O)Cc2ccc(OC)cc2)cc1	-4.7%	-3	-11%	2%
CC(C)c1ccc(O)c(NC(=S)NC(=O)c2cccnc2)c1	-1.6%	2	8%	-15%
Cc1nnc(SC(C(=O)c2ccccc2)c2ccccc2)[nH]c1=O (stereo unspecified)	-0.3%	5	-12%	4%
COc1ccc(-c2noc(N3CCC(C(=O)NCc4ccccc4Cl)CC3)n2)cc1	2.8%	x	6%	-1%
